Source: PubChem BioAssay (National Center for Advancing Translational Sciences (NCATS))
VDR inhibitor: inhibitors of human vitamin D receptor | P11473 | Potency, µM, for the others: max response, negative = inhibition, usual class: inhibitors | VDR-SRC2-3 peptide fluorescence polarization, 2 h | 0.93% of 400,000 active; active means well fitted inhibition curve with a large enough effect; inconclusive means small, poorly fitted or top-dose-only effect, or another doubt; inactive means no such curve, though single readings can be large or run the other way; further: series mostly up to about 120 µM
Target sequence (P11473 whole entry, looked up): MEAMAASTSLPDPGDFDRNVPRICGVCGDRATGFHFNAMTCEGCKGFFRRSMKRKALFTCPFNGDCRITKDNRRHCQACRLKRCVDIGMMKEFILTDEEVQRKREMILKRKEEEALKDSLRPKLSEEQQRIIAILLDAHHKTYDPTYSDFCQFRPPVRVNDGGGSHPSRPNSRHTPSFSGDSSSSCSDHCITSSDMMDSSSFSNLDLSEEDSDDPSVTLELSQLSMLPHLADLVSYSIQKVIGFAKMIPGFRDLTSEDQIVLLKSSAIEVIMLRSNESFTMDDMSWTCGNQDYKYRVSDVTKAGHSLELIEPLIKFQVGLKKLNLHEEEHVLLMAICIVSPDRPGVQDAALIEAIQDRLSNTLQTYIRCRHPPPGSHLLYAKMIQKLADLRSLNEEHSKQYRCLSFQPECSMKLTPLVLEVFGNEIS
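VDR–SRC2-3 interaction, FP format. Cmpds 23 nl via pintool, brief spin, 2 h ambient incubation.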
Active calls of the source: *; ? = inconclusive; & = joins results of further samples. On the % scale 0 is the no-effect control and ±100 the full control effect; potency means the concentration at half of the fitted maximal effect. Not all compounds are listed; count on the stated rates, not on these rows.

SMILES	VDR inhibitor
CN(C)CCCNC(=O)/C=C/c1ccc(OCc2c(F)cccc2Cl)cc1	27%
CCN1/C(=C/c2ccc3cc(C)ccc3[n+]2CC)Sc2ccccc21	4%
CCN(Cc1ccccc1)S(=O)(=O)c1c[nH]c(C(=O)OC)c1	-4%
O=C(Cc1csc(Nc2nc(=S)[nH]c3ccccc23)n1)NCCCN1CCN(c2ccccc2F)CC1	?
CC1CCN(S(=O)(=O)c2ccc(C(=O)N3CCCCC3C(=O)O)cc2)CC1 (configuration not stated)	-9%
CCCn1nc2cc(C(=O)NCCCCc3ccccc3)ccc2c1OCC	15%
O=C1CCN(Cc2ccccc2)C(=O)N1	10%
CC(OC(=O)c1ccc(-n2cnnn2)cc1)C(=O)Nc1ccccc1F (configuration not stated)	0%
N#Cc1cccc(NC(=O)c2nc(-c3ccccc3)n(-c3ccccc3)n2)c1	2%
Cc1ccccc1NS(=O)(=O)c1ccc(C(=O)N(C)CC(=O)Nc2ccccc2Br)cc1	-13%
CCOc1ccc(OCC(=O)OCC(=O)Nc2ccc3[nH]c(=O)[nH]c3c2)cc1	4%
Cc1cccc(-n2nc(C)c(C(=O)Nc3cc(C)ccc3C)c2-n2cccc2)c1	-2%
CN(C(=O)Cn1nc(Cl)ccc1=O)C1CCCN(Cc2ccccc2F)C1 (configuration not stated)	19%
Nc1c(C(=O)Nc2ccc(OC(F)(F)F)cc2)sc2nc(-c3ccncc3)ccc12	-14%
CCCn1c(SCC(=O)Nc2cccc(S(=O)(=O)N(C)C)c2)nc2ccccc2c1=O	4%
COCCCN1CCN(C2Cc3ccccc3Sc3ccc(Cl)cc32)CC1 (configuration not stated)	-3%
COc1ccc(OC)c(NC(=O)CCN2CCN(C)CC2)c1	-13%
Cc1cc(C(=O)Nc2ccccc2C(=O)O)ccc1NC(=O)COc1ccccc1Cl	2%
O=C(Nc1c(-c2ccc(F)cc2)nc2ccccn12)c1ccc(F)cc1	-4%
Cc1ccc(OCC(=O)Nc2ccc(Cl)c(-c3nc4ncccc4o3)c2)cc1C	12%
Cc1ccc(NC(=O)COC(=O)CCC(=O)c2ccc(C(C)(C)C)cc2)c([N+](=O)[O-])c1	-1%
CCc1ccc2c(c1)C(c1cccs1)=NNC(c1cccnc1)=N2	-9%
O=C(O)C1=C[C@@H](c2ccccc2)C[C@@H](OCCCCO)O1	8%
COc1cc(COc2ccc(-c3nnco3)cc2)ccc1OC(F)F	2%
O=c1[nH]c(C2CCCN(S(=O)(=O)c3ccc(F)cc3)C2)nc2c1nnn2Cc1ccccc1 (configuration not stated)	12%
CC(C)C[C@@H](CC(=O)N[C@H](CC(=O)N[C@@H]1CCNC[C@H]1C(=O)N[C@H](CC(=O)N[C@@H](CCC(=O)O)CC(=O)O)Cc1ccccc1)C(C)C)NC(=O)[C@@H]1CNCC[C@H]1N	9%
CN(C)S(=O)(=O)c1cccc(NC(=O)Cc2ccc(-c3ccccc3)cc2)c1	5%
O=C(NCCc1cccs1)C1CC(c2ccc([N+](=O)[O-])cc2)=NO1 (configuration not stated)	2%
COc1ccccc1C(=O)Nc1ccc(OCC(=O)N2CCCCC2C)cc1 (configuration not stated)	3%
COc1ccc(Cc2nnc(C(=O)NCCCN3CCN(c4ccccc4F)CC3)o2)cc1OC	3%
NS(=O)(=O)c1ccc(CCNC2CC(=O)N(Cc3ccccc3)C2=O)cc1 (configuration not stated)	3%
O=C(NCC1CCCO1)C1CC(c2ccccc2Cl)=NO1 (configuration not stated)	12%
C=CCC12C=C(OC)C(=O)OC(OC)(C1O)[C@H](c1ccc3c(c1)OCO3)[C@H]2C (some centres not stated)	0%
COc1ccc(NC(=O)c2ccc(S(=O)(=O)N(C)C)cc2)cc1	9%
COc1ccc2sc(-c3ccc(N(C)C)cc3)c(-c3cnc(OC)nc3)c2c1	2%
Cc1occc1C(=O)NCCc1ccc(Cl)cc1	12%
O=C(Nc1nonc1-c1ccc(Cl)cc1)c1ccco1	?
CN1C(=O)Cc2cc(S(=O)(=O)NCc3cccs3)ccc21	1%
O=C(CN1C(=O)NC2(CCCCC2)C1=O)NCCc1c[nH]c2ccccc12	1%
CC(NS(=O)(=O)c1ccc(OCC(=O)Nc2cccc([N+](=O)[O-])c2)cc1)c1ccccc1 (configuration not stated)	-4%
COC(=O)CSc1nnc(CSc2nc(C)cc(C)n2)o1	-20%
Cc1ccc2[nH]c3c(c2c1)CCCC3NCCO (configuration not stated)	-16%
Cc1noc(C)c1N=Nc1ccc(Br)cc1C(=O)O	-14%
O=C(COC(=O)/C=C/c1ccc(Cl)cc1)NC1CCCCCC1	-23%
O=C(COC(=O)c1ccc(Cl)nc1)Nc1ccc2c(c1)OCO2	-1%
Cc1cc(C)c(S(=O)(=O)n2ccc3ccccc32)c(C)c1	-6%
Cc1cccc(NC(=O)CCC(=O)N/N=C/c2ccco2)c1C	-7%
Cc1[nH]c2ccc(-c3n[nH]c(=S)n3C)cc2c1C	-4%
COc1ccc2oc(=O)cc(CN3CCN(c4ccccc4OC)CC3)c2c1	3%
Cc1ccc(S(=O)(=O)N/N=C\c2ccc3c(c2)OCO3)c(C)c1	4%
COc1cccc(C(=O)NNC(=O)c2ccc(NS(=O)(=O)c3cccs3)cc2)c1OC	-9%
COc1cc(C2CC(=O)c3cnc(NC(=O)c4ccco4)nc3C2)cc(OC)c1OC (configuration not stated)	?
CC(=O)c1cnc(Nc2cccc(Cl)c2Cl)s1	-8%
NS(=O)(=O)c1ccc(NC(=O)CSc2ccccn2)cc1	-1%
Cc1ccc(-c2nn(CC(=O)NC3CCCC3)c3c2cnc2ccc(F)cc23)cc1C	2%
COc1ccc(NC(=S)N2CCC(C(=O)c3ccc(C)cc3)CC2)c(OC)c1	-6%
COc1ccc(/C=N/OCC(=O)N2CC3(C)CC2CC(C)(C)C3)cc1OC (configuration not stated)	0%
O=C(O)c1cccc(S(=O)(=O)Nc2ccccc2Cc2ccccc2)c1	-1%
NCC(c1ccccc1)(c1ccccc1)c1ccccc1	-4%
NC(=O)CN1CCOCCN(CC(N)=O)CCOCC1	-7%

Later entries
SMILES	VDR inhibitor
Cc1ccc(C)c(N2CCN(S(=O)(=O)c3c(C(=O)N4CCC(C)CC4)c(C)n(C)c3C)CC2)c1	8%
COc1ccc2c(c1)CCc1c(C(=O)Nc3cc(C)ccc3O)noc1-2	-23%
Cc1ccc(CNC(=O)CS(=O)(=O)c2cn(CC(=O)N3CCOCC3)c3ccccc23)cc1	-4%
Cc1ccc(S(=O)(=O)N2CCN(CCO)CC2)cc1-c1nnc2c3ccccc3c(C)nn12	11%
COc1cccc(C(=O)Nc2nc3nc(C)c(C)c(=O)n3[nH]2)c1	12%
COc1cccc(NC(=O)N2CCN3CCCCC3C2)c1 (configuration not stated)	2%
O=C(COC(=O)c1c(Cl)cccc1Cl)Nc1ccccc1Br	-20%
CCCn1c(=O)c2c(nc3n2CCS3)n(C)c1=O	-17%
CN1C(=O)NC(=O)C1c1ccccc1 (configuration not stated)	20%
O=C(CCCn1ccc2cc(S(=O)(=O)N3CCCC3)ccc21)NCc1ccc(Cl)cc1	5%
C=CCn1c(SCC(=O)Nc2nc(C)cs2)nnc1C(NC(=O)c1ccccc1)C(C)C (configuration not stated)	-15%
CCCc1nc2ccccc2c(=O)n1NC(=O)c1c(O)c2ccccc2n(C)c1=O	-9%
O=C(N/N=C/c1cccn1-c1ccc([N+](=O)[O-])cc1)c1cccnc1	7%
Cc1onc(-c2ccccc2Cl)c1C(=O)Nc1cnn(Cc2ccccc2)c1	13%
O=C(NC1CC2CCCC(C1)N2C(=O)NCc1ccccc1)C1CC1 (configuration not stated)	-11%
CCOCCCNC(=O)Cn1cnc2c(cnn2-c2ccc(C)c(C)c2)c1=O	10%
O=C(COc1ccccc1)Nc1nnc(S(=O)(=O)N2CCCC2)s1	15%&-7%
CCC(OCC(O)CN1CCCCC1)c1ccccc1 (configuration not stated)	-7%
CC(C)CC(CO)N1CCN(C(=O)c2ccc(Cl)cc2)CCC1=O (configuration not stated)	-12%
COc1ccc(CN2C(=NC(=O)c3ccccc3)SC3CS(=O)(=O)CC32)cc1OC (configuration not stated)	-1%
CC(=O)C(Cc1ccccc1)NC(=O)COC(=O)c1ccc(-n2cnnn2)cc1 (configuration not stated)	-3%
CC(C)CC(NC(=O)c1ccc(C#CC(C)(C)O)s1)C(=O)O (configuration not stated)	15%
COc1ccc(C(OC(=O)c2ccco2)C(=O)NC2CCCC2)cc1OC (configuration not stated)	-1%
CCc1cccc(NC(=O)CN(c2ccc(C)cc2)S(=O)(=O)c2cccs2)c1	-19%
COc1ccc(NC(=S)NC(NC(C)=O)C(Cl)(Cl)Cl)c([N+](=O)[O-])c1 (configuration not stated)	-13%
CC12CCC(=O)N1C(C(=O)NCCc1ccc(S(N)(=O)=O)cc1)CS2 (configuration not stated)	-10%
CSc1ccccc1-c1nnc(-c2ccc(Cl)c(Cl)c2)o1	-12%
COC(=O)c1c(-c2ccc(C)cc2)csc1N	-20%
CC(C)Oc1ccc(C(=O)N2CCC(c3nc4ccccc4o3)CC2)cc1	-3%
CS(=O)(=O)c1ccc(C(=O)OCC(=O)NC23CC4CC(CC(C4)C2)C3)cc1[N+](=O)[O-]	?
O=C(COC(=O)c1ccco1)NCCNC(=O)COC(=O)c1ccco1	-6%
COc1ccc(N2C(=NC(=O)C3CCCCC3)SC3CS(=O)(=O)CC32)cc1Cl (configuration not stated)	-28%
CCN(CC)CCNC(=O)c1ccc(NC(=O)c2ccc(Cl)c(S(=O)(=O)N3CCCCCC3)c2)cc1	3%
O=C(CSc1ccccc1)Nc1cccc(NC(=O)c2ccco2)c1	-9%
CNC(=O)c1c(NC(=O)c2ccc(S(=O)(=O)N3CC(C)OC(C)C3)cc2)sc2c1CCN(C(C)C)C2 (configuration not stated)	-12%
CCC1=NN(C(=O)c2ccccc2Br)C(O)(c2ccc(Br)cc2)C1 (configuration not stated)	-12%
COc1ccccc1Oc1ccc(N2CC(C(=O)OCC(=O)c3ccc(F)cc3)CC2=O)cc1 (configuration not stated)	-7%
C[C@@H]1CC[C@]2(C(=O)O)CC[C@]3(C)C(=CCC4[C@]56CC[C@@](O)(OC5)C(C)(C)C6CC[C@]43C)C2[C@H]1C (some centres not stated)	-6%
Cc1cc2oc3c(c(=O)c2cc1C)C(c1ccc(C(C)C)cc1)N(CCCN1CCOCC1)C3=O (configuration not stated)	-18%
CCOc1ccc(C2C(=O)N(C3CCCCC3)CC(=O)N2CC2CCCO2)cc1OC (configuration not stated)	8%
Cc1ccc(C(C)n2cc(C(=O)NCCN3CCN(C)CC3)nn2)cc1 (configuration not stated)	-18%
COc1ccc2c(CC(=O)OCC(=O)c3ccc(F)cc3)coc2c1	0%
Cc1ccc2oc(=O)cc(CN3CCN(C/C=C/c4ccccc4)CC3)c2c1	?
COc1nc(NC2OC(CO)C(O)C(O)C2O)c(N)c(=O)[nH]1 (configuration not stated)	-13%
O=C(Nc1ccc(-c2nc3ccccc3o2)c(O)c1)c1cc(Cl)ccc1Cl	-6%
CCOC(=O)c1cnc(SCC(=O)c2ccc3c(c2)OCCO3)nc1N	-4%
CCN(CC)C(=O)[C@H]1CC(CC(=O)NCCC2=CCCCC2)C(=O)N2CCc3c([nH]c4ccc(OC)cc34)[C@]12C (some centres not stated)	10%
Cc1c(NC(=O)/C(=C/c2cccs2)NC(=O)c2ccccc2)c(=O)n(-c2ccccc2)n1C	7%
O=C(NNC(=O)c1ccccc1Cl)c1ccc2c(c1)OCCO2	1%
O=C(Cn1cc([N+](=O)[O-])cn1)N1CCN(Cc2ccc3c(c2)OCO3)CC1	-9%
CC(=O)Nc1cc(C(F)(F)F)ccc1Oc1cccc(Br)c1	-11%
Cn1c(Cn2cnc([N+](=O)[O-])n2)nnc1SCC(=O)Nc1cccc(Cl)c1	-10%
OCCC1CN(Cc2ccccc2-c2ccco2)CCN1C1CCCC1 (configuration not stated)	-5%
O=C(Cc1ccccc1)N/N=C/c1ccc(OCC(=O)Nc2ccccc2)cc1	-3%

20 entries already listed, ordered by molecular weight, ascending.
SMILES	VDR inhibitor
COc1nc(NC2OC(CO)C(O)C(O)C2O)c(N)c(=O)[nH]1 (configuration not stated)	-13%
O=C(NNC(=O)c1ccccc1Cl)c1ccc2c(c1)OCCO2	1%
COc1ccc2c(CC(=O)OCC(=O)c3ccc(F)cc3)coc2c1	0%
O=C(CSc1ccccc1)Nc1cccc(NC(=O)c2ccco2)c1	-9%
OCCC1CN(Cc2ccccc2-c2ccco2)CCN1C1CCCC1 (configuration not stated)	-5%
Cc1ccc(C(C)n2cc(C(=O)NCCN3CCN(C)CC3)nn2)cc1 (configuration not stated)	-18%
O=C(Cn1cc([N+](=O)[O-])cn1)N1CCN(Cc2ccc3c(c2)OCO3)CC1	-9%
Cc1ccc2oc(=O)cc(CN3CCN(C/C=C/c4ccccc4)CC3)c2c1	?
CCOC(=O)c1cnc(SCC(=O)c2ccc3c(c2)OCCO3)nc1N	-4%
O=C(Cc1ccccc1)N/N=C/c1ccc(OCC(=O)Nc2ccccc2)cc1	-3%
O=C(Nc1ccc(-c2nc3ccccc3o2)c(O)c1)c1cc(Cl)ccc1Cl	-6%
Cn1c(Cn2cnc([N+](=O)[O-])n2)nnc1SCC(=O)Nc1cccc(Cl)c1	-10%
CCOc1ccc(C2C(=O)N(C3CCCCC3)CC(=O)N2CC2CCCO2)cc1OC (configuration not stated)	8%
COc1ccc(N2C(=NC(=O)C3CCCCC3)SC3CS(=O)(=O)CC32)cc1Cl (configuration not stated)	-28%
CCC1=NN(C(=O)c2ccccc2Br)C(O)(c2ccc(Br)cc2)C1 (configuration not stated)	-12%
Cc1c(NC(=O)/C(=C/c2cccs2)NC(=O)c2ccccc2)c(=O)n(-c2ccccc2)n1C	7%
COc1ccccc1Oc1ccc(N2CC(C(=O)OCC(=O)c3ccc(F)cc3)CC2=O)cc1 (configuration not stated)	-7%
Cc1cc2oc3c(c(=O)c2cc1C)C(c1ccc(C(C)C)cc1)N(CCCN1CCOCC1)C3=O (configuration not stated)	-18%
CNC(=O)c1c(NC(=O)c2ccc(S(=O)(=O)N3CC(C)OC(C)C3)cc2)sc2c1CCN(C(C)C)C2 (configuration not stated)	-12%
CCN(CC)C(=O)[C@H]1CC(CC(=O)NCCC2=CCCCC2)C(=O)N2CCc3c([nH]c4ccc(OC)cc34)[C@]12C (some centres not stated)	10%
